EPAC2 antag: human EPAC2 antagonism, validation; EPAC2 Rap1B BODIPY-GDP exchange, fluorescence; Potency, µM (highest dose often 112 µM), inactives show at the highest dose activity, negative = inhibition, usual class: inhibitors; 16,000 tested, 1.7% active; AID 1645886; Q8WZA2; active = well fitted inhibition curve with a large enough effect; inconclusive = small, poorly fitted or top-dose-only effect; inactive = no such curve, though single readings can be large or run the other way;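 also: 100% = activation by cAMP agonist control; nearly all actives have a fitted effect of over 40% in size; the record reuses the description of the EPAC1 agonist screen; inactives centre near -10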
Target sequence (Q8WZA2 whole entry, looked up): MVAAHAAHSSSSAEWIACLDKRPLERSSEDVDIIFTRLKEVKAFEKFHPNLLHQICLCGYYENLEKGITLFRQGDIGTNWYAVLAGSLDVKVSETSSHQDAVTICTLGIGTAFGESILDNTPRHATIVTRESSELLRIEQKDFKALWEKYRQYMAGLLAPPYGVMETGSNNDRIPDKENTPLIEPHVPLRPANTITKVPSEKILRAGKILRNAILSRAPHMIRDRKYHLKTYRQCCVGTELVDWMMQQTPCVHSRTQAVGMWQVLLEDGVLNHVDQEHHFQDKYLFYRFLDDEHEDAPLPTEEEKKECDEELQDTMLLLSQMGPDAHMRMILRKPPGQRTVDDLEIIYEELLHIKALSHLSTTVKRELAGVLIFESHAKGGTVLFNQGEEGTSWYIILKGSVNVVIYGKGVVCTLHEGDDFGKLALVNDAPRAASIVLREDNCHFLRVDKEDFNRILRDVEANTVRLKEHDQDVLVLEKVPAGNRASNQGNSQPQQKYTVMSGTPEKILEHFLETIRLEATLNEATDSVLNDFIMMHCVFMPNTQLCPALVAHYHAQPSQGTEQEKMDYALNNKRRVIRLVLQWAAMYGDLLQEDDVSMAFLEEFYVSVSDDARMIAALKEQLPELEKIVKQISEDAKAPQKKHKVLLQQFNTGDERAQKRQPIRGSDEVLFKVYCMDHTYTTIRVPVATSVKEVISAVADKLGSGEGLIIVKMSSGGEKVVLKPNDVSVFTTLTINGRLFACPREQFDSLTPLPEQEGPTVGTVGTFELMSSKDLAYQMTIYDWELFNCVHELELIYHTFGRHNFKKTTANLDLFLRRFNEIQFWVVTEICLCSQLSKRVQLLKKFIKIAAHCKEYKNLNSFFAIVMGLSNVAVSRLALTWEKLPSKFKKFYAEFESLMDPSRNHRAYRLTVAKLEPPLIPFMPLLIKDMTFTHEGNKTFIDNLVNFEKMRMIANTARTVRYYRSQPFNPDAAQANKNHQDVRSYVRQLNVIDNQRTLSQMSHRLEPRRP
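Normalized against a 6.5 mM cAMP agonist control, compounds were tested on 100 nM EPAC2 exchanging Rap1B-bound BODIPY-GDP (250 nM) for 50 uM GDP. Fluorescence drop (ex 480, em 540 nm) was tracked at room temperature over 30 min at 5-min intervals.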
* = called active by the depositor; ? = inconclusive; & = joins results of further samples; [ ] = dose if it differs, or a comment. Potency is read from the fitted curve at half-maximal effect. The list is partial (hit frequency here may not be typical).

A first look:
Molecule	EPAC2 antag
O=C(Nc1cccc(N2CCC(NCc3cnn(-c4cccc(F)c4)c3)CC2)c1)c1ccncc1	2%
CN[C@@H]1[C@H](O[C@H]2[C@H](O[C@H]3[C@H](O)[C@@H](O)[C@H](N=C(N)N)[C@@H](O)[C@@H]3N=C(N)N)O[C@@H](C)[C@]2(O)CO)O[C@@H](CO)[C@H](O)[C@H]1O	-8%
O=c1c(-c2ccc(F)cc2)nc2cnc(N3CCNCC3)nc2n1-c1ccccc1	-30%
COc1cnc(NS(=O)(=O)c2ccc(N)cc2)nc1	1%[56.6 µM]

Results, from the start:
Molecule	EPAC2 antag
O=C(Nc1cccc(N2CCC(NCc3cnn(-c4cccc(F)c4)c3)CC2)c1)c1ccncc1	2%
CN[C@@H]1[C@H](O[C@H]2[C@H](O[C@H]3[C@H](O)[C@@H](O)[C@H](N=C(N)N)[C@@H](O)[C@@H]3N=C(N)N)O[C@@H](C)[C@]2(O)CO)O[C@@H](CO)[C@H](O)[C@H]1O	-8%
O=c1c(-c2ccc(F)cc2)nc2cnc(N3CCNCC3)nc2n1-c1ccccc1	-30%
COc1cnc(NS(=O)(=O)c2ccc(N)cc2)nc1	1%[56.6 µM]
COC1=C(OC)C(=O)C(C/C=C(\C)CC/C=C(\C)CC/C=C(\C)CC/C=C(\C)CC/C=C(\C)CC/C=C(\C)CC/C=C(\C)CC/C=C(\C)CC/C=C(\C)CCC=C(C)C)=C(C)C1=O	6%
N[C@@H](C(=O)N[C@H]1C(=O)N2C(C(=O)O)=C(Cl)CC[C@H]12)c1ccccc1	0%
COc1cccc(Cn2c(=O)c(-c3cc(F)cc(F)c3)nc3cnc(OC)nc32)c1	-25%
O=c1[nH]c(=O)c2[nH]c(=O)[nH]c2[nH]1	9%&14%
N[C@@H](Cn1cc(I)c(=O)n(Cc2ccc(C(=O)O)cc2)c1=O)C(=O)O	-20%
Cc1noc(C)c1-c1nc(Nc2ccc(F)cc2)c2ccccc2n1	-10%
COc1ccccc1N(C)C	-17%
CN(CCO)C(=O)c1cn(C2CCCN(Cc3ccc(C(F)(F)F)cc3)C2)nn1 (stereo not given)	9%

Next section.
Molecule	EPAC2 antag
CN1c2cc(O)c(N=NC(N)=O)cc2CC1S(=O)(=O)O (stereo not given)	-23%
CNc1ncnc2ccc(-c3ccccc3OC)cc12	-15%
COCCC(=O)NCC1Cc2cc(Cl)cc(-c3ccc4[nH]ccc4c3)c2O1 (stereo not given)	-23%
COc1ccc(CNc2ncnc3ccc(-c4ccoc4)cc23)c(OC)c1	-28%
CCOc1ccc2nc(N3CCCN(CCCn4cccn4)CC3)nc(C)c2c1	-5%
O=C(c1cnn(-c2nccc(-c3ccccc3F)n2)c1C1CC1)N1CCN(CCO)CC1	?
CN(C)c1ccc(/C=C/c2ccnc3ccc4ccccc4c23)cc1	?
CC(C)NC(=O)N1CC[C@@]2(CCCN(C(=O)c3csnn3)C2)C1	-13%
Cn1cccc1C(=O)N1CCC2(CCN(Cc3ccccc3)CC2)CC1	-16%
O=C([C@@H]1CC=C[C@@H]2CCN(C3CC3)C(=O)[C@@H]21)N1CCOCC1	-25%
c1cc2c3c(c1)c1c(n3CCNC2)CCCC1	0%
Oc1c(I)cc(Cl)c2cccnc12	?

(listing goes on)
Molecule	EPAC2 antag
COc1ccccc1C(=O)N[C@@H]1c2ccccc2C2(CCN(Cc3cnn(C)c3C)CC2)[C@H]1O	?
CC(=O)N[C@@H](C=O)[C@@H](O)[C@H](O)[C@H](O)CO	-25%
CCN(CC)CCNC(=O)c1cc(Br)c(N)cc1OC	-6%
CCCCCCCCC(=O)NCc1cc(OC)c(O)cc1I	?
CC(C(=O)O)c1ccc2c(c1)Cc1cccnc1O2 (stereo not given)	8%
CC(C)N(CCO)Cc1nc(N2CCOCC2)c2cc(Cl)ccc2n1	-9%
CCc1nn(CCCN2CCN(c3cccc(Cl)c3)CC2)c(=O)n1CCOc1ccccc1	-9%&-16%
Cn1ccc(C(=O)NCC2CCC3(CCN(Cc4ccc(F)cc4F)CC3)O2)n1 (stereo not given)	-12%
CC1C(=O)N(C)C(=O)c2nc[nH]c21 (stereo not given)	-14%
COc1ccccc1CNc1ncnc2sc(C(=O)N(C)C(C)C)c(C)c12	-26%
CC1(C)S[C@@H]2[C@H](NC(=O)C(C(=O)O)c3ccccc3)C(=O)N2[C@H]1C(=O)O (stereo not given in full)	9%
Cn1cc(-c2nc3cnc(N4CCNCC4)nc3n(CCC#N)c2=O)c2ccccc21	-18%

(listing goes on)
Molecule	EPAC2 antag
Nc1nc2c(ncn2C2OC(COC(=O)c3ccccc3)C(OC(=O)c3ccccc3)C2OC(=O)c2ccccc2)c(=O)[nH]1 (stereo not given)	5%
Cc1noc(C)c1-c1cc(NCc2ccccc2)ncn1	-12%
Cc1cc(-n2nc3ccc(Cl)cc3n2)c(O)c(C(C)(C)C)c1	-8%
N[C@@H](C(=O)O)c1cc(O)ccc1Cl	-31%
Cn1cccc1C(=O)N1CCC2(CC1)CN(c1ccccn1)C2	-32%
COC(=O)c1ccccc1C(=O)N1CCOc2ccc(CN3CCN(c4ccccn4)CC3)cc2C1	?
NCCCCCC(=O)O	-37%
C=N[C@@H](C(=O)N[C@@H]1C(=O)N2[C@@H]1SC(C)(C)[C@@H]2C(=O)O)c1ccccc1	-11%
CCn1nc(C)c(CN2CCC3(CCC(CNC(=O)c4ccccc4)O3)CC2)c1C (stereo not given)	5%
O=C(c1ccncc1)N1CCC2(CCC(CNC(=O)C3(N4CCOCC4)CCCCC3)O2)CC1 (stereo not given)	5%
Cc1noc(C)c1C(=O)N1CCC2(CCCN(C(=O)Nc3cccc(C#N)c3)C2)CC1	-31%
C[C@@H](C1=C(CCN(C)C)Cc2ccccc21)c1ccccn1	-31%

(cont.)
Molecule	EPAC2 antag
O=C(O)[C@@H]1C[C@H](C(=O)O)N1	-14%
CNC(=O)[C@@H]1C[C@H](NC2CCCCCCC2)CN1Cc1cccc(OC)c1OC	2%
Cc1cccc(-c2cccc(C(=O)N3CCc4c(cnc(C)c4CNC(=O)c4cncs4)C3)c2)c1	?
Cc1cc2nc(N3CCCN(Cc4cccn4-c4ncccn4)CC3)nc(C)c2cc1C	-20%
Cc1ccccc1-c1ccc2ncnc(NCCN3CCOCC3)c2c1	-22%
COc1cc2c(c(OC)c1OC)-c1ccc(OC)c(=O)cc1[C@@H](NC(C)=O)CC2	?
COc1ccccc1/C=C\C(=O)OC[C@@H]1CCCN2CCCC[C@H]12	?
Cc1oc(-c2cccc(NC(=O)C3CCCN(C)C3)c2)nc1CNC(=O)c1coc2c1C(=O)CCC2 (stereo not given)	-35%
CCNc1ncc2nc(-c3ccc(F)cc3)c(=O)n(-c3ccc(OC)cc3)c2n1	5%
CC1(C)SC2C(NC(=O)Cc3ccccc3)C(=O)N2C1C(=O)O (stereo not given)	-5%
O=c1cc(-c2cc(O)c(O)c(O)c2)oc2cc(O)cc(O)c12	?
CCCS(=O)(=O)NCc1c(C)ncc2c1CCN(C(=O)c1ccc(F)c(F)c1)C2	6%

More results follow:
Molecule	EPAC2 antag
COc1ccc(CN2CCOc3ccc(C(O)c4cccnc4)cc3C2)c(OC)c1OC (stereo not given)	4%
O=C(C[C@H]1C(=O)N(c2ccccc2)C[C@@H]1Cc1ccccc1)Nc1ccccc1	-39%
CO[C@H]1C[C@@H]2CC[C@@H](C)[C@@](O)(O2)C(=O)C(=O)N2CCCC[C@H]2C(=O)OC([C@H](C)C[C@@H]2CC[C@@H](O)[C@H](OC)C2)CC(=O)[C@H](C)/C=C(\C)[C@@H](O)[C@@H](OC)C(=O)[C@H](C)C[C@H](C)/C=C/C=C/C=C/1C (stereo not given in full)	?
CNc1ccnc(-c2ccccc2C(F)(F)F)n1	-7%
COc1ccc(CNc2ncncc2-c2cccnc2)c(OC)c1	-32%
COc1ccc(-c2nc3cnc(N4CCN(C)CC4)nc3n(CCC#N)c2=O)cc1	-15%
Cc1cnc(SCc2ccccn2)nc1C1CCCN(C(=O)c2ccc3[nH]c(C)c(C)c3c2)C1 (stereo not given)	-22%
CCOC(=O)/C=C/c1ccccc1S(=O)(=O)NC(C)(C)C	?
CC(O)(COc1ccccc1)c1ccc2c(c1)CN(C/C=C/c1ccco1)CCO2 (stereo not given)	1%
O=C(NC[C@H]1CCCCN1)c1cc(OCC(F)(F)F)ccc1OCC(F)(F)F	-16%
C=C(C)[C@H]1CC=C(C)C(=O)C1	-9%
C[C@@H]1C[C@H]2[C@@H]3CCC4=CC(=O)C=C[C@]4(C)[C@@]3(F)[C@@H](O)C[C@]2(C)[C@@]1(O)C(=O)CO	-11%

The listing continues:
Molecule	EPAC2 antag
Cc1noc(C)c1-c1nccc(-n2ccnc2)n1	-10%
CCCCCCCCCCCCCCCC(=O)OC[C@@H](COP(=O)([O-])OCC[N+](C)(C)C)OC(=O)CCCCCCCCCCCCCCC	15%
O=c1c(-c2cc(F)cc(F)c2)nc2cnc(N3CCOCC3)nc2n1C1CC1	-1%
COc1cc(=O)n2c(c1C(=O)NCc1ccco1)CCN(C(=O)c1ccc(C)c(C)c1)CC2	?
COc1cc(-c2c(-c3ccc4c(c3)OCO4)noc2-c2ccsc2)cc(OC)c1OC	-21%
Cn1c(=O)c(-c2ccc(Cl)cc2)nc2cnc(Oc3cccc(Cl)c3)nc21	-27%
Cc1nc2ccccc2n1Cc1ccc(Cl)cc1	?
COC(=O)C1CCN(Cc2ccc3c(c2)CN(C(=O)c2cc(C)on2)CCO3)CC1	-8%
O=C(O)c1cc([N+](=O)[O-])ccc1NCCCc1ccccc1	?
COC(=O)CC1C(C)(C)C(O)C2CC3=C4C=C(OC)OC(c5ccoc5)[C@]4(C)CCC3[C@@]1(C)C2=O (stereo not given in full)	-19%
COc1cc([C@@H]2c3cc4c(cc3[C@H](O)C3COC(=O)[C@@H]32)OCO4)cc(OC)c1OC (stereo not given in full)	4%
O=C(Nc1ccc2c(c1)OCO2)O[C@@H]1C[C@H]2CCC(=O)N3CC[C@@H](C1)[C@@H]23	-13%

Next section.
Molecule	EPAC2 antag
O=C(Nc1cc(C(=O)N2CCN(CCO)CC2)c2c(c1)ncn2C1CCCC1)c1ccccc1	?
CCCCC(=O)NCCc1c(Cc2ccccc2)[nH]c2ccccc12	?
N#Cc1cccc(NC(=O)N2CC3(CCN(C(=O)c4cc(C(F)(F)F)cc(C(F)(F)F)c4)CC3)C2)c1	?
CC(=O)N1CCC2(CC1)CN(Cc1ccc(C#N)cc1)C2	-19%
CCCCN(CCCC)CCC(O)c1cc2c(Cl)cc(Cl)cc2c2cc(C(F)(F)F)ccc12 (stereo not given)	?
CCn1c(-c2ccccc2F)nc2cc(C(=O)NCC3CCOCC3)cc(NC(C)=O)c21	4%
COc1ncc2nc(-c3cn(C)c4ccccc34)c(=O)n(C)c2n1	-9%
Cn1cccc1C(=O)N1CCC2(CCN(C(=O)Nc3ccccc3)CC2)CC1	-12%
COc1ccc(-c2cc(C)cc3c2OC(CNC(=O)c2cc(C(C)C)on2)C3)nn1 (stereo not given)	-1%
COC(=O)[C@@H](CC(C)C)N(Cc1ccccc1)S(=O)(=O)N(Cc1ccccc1)[C@@H](CC(C)C)C(=O)OC	-32%
CNc1nc(-c2ccccc2OC)nc2ccccc12	-18%
O=C1[C@H](Cc2ccccc2)NCCCC[C@@H](c2ccc(Cl)cc2)N1Cc1ccccc1	?

As entered above.
Under EPAC2 antag, COc1ncc2nc(-c3cn(C)c4ccccc34)c(=O)n(C)c2n1 has the entry -9%
Under EPAC2 antag, CC(=O)N1CCC2(CC1)CN(Cc1ccc(C#N)cc1)C2 has the entry -19%
Under EPAC2 antag, CCn1c(-c2ccccc2F)nc2cc(C(=O)NCC3CCOCC3)cc(NC(C)=O)c21 has the entry 4%

Other records follow:
Molecule	EPAC2 antag
O=C(OCc1ccccc1)c1cccnc1	-18%
COc1ccc2c(c1)-c1nc(-n3ncc(C(=O)N(C)CC4CCCN(C)C4)c3C)ncc1CC2 (stereo not given)	13%
COc1ccccc1-c1ccnc(-n2ncc(C(=O)N3CCCCC3c3cccnc3)c2C)n1 (stereo not given)	-5%
Clc1cccc[n+]1CCCCCC[n+]1ccccc1Cl	?
COc1cccc(N2[C@@H](CC(C)=O)c3cc(C(F)(F)F)ccc3S2(=O)=O)c1	?
Cc1c(C)c2c(c(C)c1OC(=O)CCC(=O)O)CC[C@@](C)(CCC[C@H](C)CCC[C@H](C)CCCC(C)C)O2	10%
CCOC(=O)O[C@]1(C(=O)COC(=O)CC)CC[C@H]2[C@@H]3CCC4=CC(=O)C=C[C@]4(C)[C@H]3[C@@H](O)C[C@@]21C	?
COc1ccc(-c2cn(Cc3cccc(OC)c3)nn2)cc1	-18%
Cc1ncc2c(c1CNC(=O)c1ccc3c(c1)OCO3)CCN(C(=O)c1coc3c1C(=O)CCC3)C2	3%
CC1(C)SC2C(NC(=O)C(NC(=O)N3CCNC3=O)c3ccccc3)C(=O)N2C1C(=O)O (stereo not given)	-9%
COc1ccccc1-c1cncnc1NCc1ccccc1	-16%
CC[N+](CC)(CC)CCOc1ccc(/C=C\c2ccccc2)cc1	-7%

More entries.
Molecule	EPAC2 antag
O=C(/C=C/c1ccccc1)c1ccc(O[C@H]2OC(CO)C(O)C(O)C2O)cc1O (stereo not given in full)	-10%
CN1CCN(c2ncc3nc(-c4cccs4)c(=O)n(C[C@H]4CCCO4)c3n2)CC1	?
COCC(=O)Nc1cc(C(=O)N2CCCOc3c(cccc3OC)C2)c2c(c1)nc(C1CCC1)n2C	-26%
CC12CCCC(O)(C1)C1CC(C)(C)C1CC2 (stereo not given)	-28%

Screens from PubChem.
